# INS promoter inh = inhibitors of insulin promoter-driven GFP, primary screen, imaging, TRM-6 cells (human fetal islet line), eGFP reporter, cell count | hit rate 0.9% among 130,000 | reporter expression induced with tamoxifen | inhibition, % at 2 µM | AID 1273, 2008;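 active = inhibition above the mean plus 3 SD, with well images judged a real hit on visual review, cut at about 60% in these data, passing the limit was not always enough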
# RGS16-Gao HTS = modulators of RGS16 binding to Galphao, primary screen, biochemical, human proteins, multiplexed bead flow cytometry | binding response (% of control), % at 10 µM | hit rate 0.38% among 220,000 | AID 1441, 2008 | Regulator of G-protein signaling 16 (Homo sapiens) + Guanine nucleotide-binding protein … | bead-based flow cytometry RGS16-Galphao binding, fluorescence; actives lie on both sides;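 active = below 25% or above 175%, edge rows of some plates excepted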;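 also: Galphao activated by GDP with aluminum fluoride before binding; 100% = wells without compound and 0% = beads without RGS; some results beyond the cut were filed as inactive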
# HSV replic up = enhancers of HSV replication in host cells, fold increase, host cell viability. HSV replication augmentation in cells. maximum fold increase. hit rate 0.005% among 220,000. AID 1956, 2009;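 active = peak rise of 1.5-fold or more in the series; tested in PC3 cells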;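 also: first round at 10 µM; read as green reporter fluorescence; hits show the peak of a series up to 25 µM; 1 = signal of infected wells without compound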
# GALR2 ag = GALR2 receptor agonists, primary screen, cell-based; Galanin receptor type 2 (Homo sapiens), O43603; GALR2-expressing cells, agonist activation read-out; activation, %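 (tested at 5 µM)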; hit rate 0.48% among 140,000; AID 803, 2007;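 active = above mean plus 3 SD of all compounds, about 5% in these data, not always enough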;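 also: 0% = vehicle buffer wells and 100% = reference agonist at full effect; tested in CHO reporter cells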
# PKD1 kinase inh = inhibitors of human PKD1 kinase, biochemical, fluorescence polarization; Serine/threonine-protein kinase D1 (Homo sapiens), Q15139; PKD1 kinase fluorescence polarization assay; inhibition, %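 (about 10 µM by stock and volumes)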; hit rate 0.056% among 200,000; AID 797, 2007;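 active = inhibition of 50% or more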;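 also: controls were vehicle for no effect and a reference inhibitor for full effect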
# Target sequence (Q15139 whole entry, looked up): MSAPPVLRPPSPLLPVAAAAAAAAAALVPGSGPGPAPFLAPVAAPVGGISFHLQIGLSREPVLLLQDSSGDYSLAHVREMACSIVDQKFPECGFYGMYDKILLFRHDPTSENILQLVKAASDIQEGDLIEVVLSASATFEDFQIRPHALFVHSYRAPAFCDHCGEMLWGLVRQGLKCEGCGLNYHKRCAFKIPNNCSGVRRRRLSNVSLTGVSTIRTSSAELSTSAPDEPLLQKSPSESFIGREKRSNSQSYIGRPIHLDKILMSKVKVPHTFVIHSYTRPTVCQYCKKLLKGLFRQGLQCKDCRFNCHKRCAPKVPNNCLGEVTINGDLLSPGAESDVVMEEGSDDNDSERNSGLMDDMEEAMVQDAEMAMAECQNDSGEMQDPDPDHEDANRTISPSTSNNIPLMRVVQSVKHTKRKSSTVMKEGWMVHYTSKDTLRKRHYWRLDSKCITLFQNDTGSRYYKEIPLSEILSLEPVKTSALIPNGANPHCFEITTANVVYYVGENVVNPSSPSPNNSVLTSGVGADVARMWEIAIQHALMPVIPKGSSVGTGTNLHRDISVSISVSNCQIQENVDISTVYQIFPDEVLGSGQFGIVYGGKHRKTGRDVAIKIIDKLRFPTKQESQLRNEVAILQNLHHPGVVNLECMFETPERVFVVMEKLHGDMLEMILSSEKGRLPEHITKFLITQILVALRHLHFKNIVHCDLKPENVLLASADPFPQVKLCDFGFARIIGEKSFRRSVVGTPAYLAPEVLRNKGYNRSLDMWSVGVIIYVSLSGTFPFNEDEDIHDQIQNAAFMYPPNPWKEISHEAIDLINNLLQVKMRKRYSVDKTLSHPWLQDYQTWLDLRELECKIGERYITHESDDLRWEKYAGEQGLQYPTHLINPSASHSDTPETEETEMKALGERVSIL
# INS promoter inh cell count = second read-out of INS promoter inh, no call of its own (marks repeat the call); normalized cell count, %; measured here: cell count, toxicity; reference of the scale not given here;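 cells exposed to compound for 48 h; stained nuclei by imaging scaled within each plate; lower means fewer cells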
# HSV replic up primary fold = further read-out of HSV replic up, marked with its call; fold increase; compound at 10 µM; measured here: primary screen fold increase 10 uM; tested in PC3 cells;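 GFP signal in the first replicate; 1 = infected wells without compound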
# Starred values were filed as active, the others as inactive; i = inactive; nt = not tested or not shown. Rows were taken by chance. Share with any hit: about 1.2%.
structure	INS promoter inh	INS promoter inh cell count	RGS16-Gao HTS	HSV replic up	HSV replic up primary fold	GALR2 ag	PKD1 kinase inh
O=C1N/C(=C\c2nc3ccccc3s2)c2ccccc21	nt	nt	109.1	i	0.92	nt	nt
O=C(O)c1c(-c2ccccc2)c(-c2ccccc2)nc2ccccc12	nt	nt	96.5	i	0.93	nt	-2.6
CCN1CCN(C(=S)Nc2cc(S(=O)(=O)N(CC)CC)ccc2C)CC1	-57.1	83.1	94.3	i	0.99	nt	1.0
CC(C)(C)C1CCc2c(sc3ncn(N)c(=N)c23)C1 (stereo not given)	nt	nt	108.3	i	0.79	nt	nt
COCc1cc(C)nc2sc(C(=O)NC3CCCCC3)c(N)c12	nt	nt	106.8	i	1.08	-1.8	-5.9
CCCCC1CCC(/C(N)=N/O)CC1 (stereo not given)	nt	nt	96.6	i	0.93	0.1	-0.2
CCCCCCNC(=O)C(C(=O)OCC)C1CCCCC1 (stereo not given)	-80.7	73.1	96.5	i	1.06	-1.0	-10.5
Cc1cc(C)nc(Nc2nc3ccccc3s2)n1	nt	nt	102.1	i	0.99	nt	-4.2
Cc1ccc(Nc2nc(N)c([N+](=O)[O-])c(N3CCOCC3)n2)cc1	nt	nt	99.7	i	0.83	0.7	9.9
CCc1nnc(NC(=O)CSc2nnc(-c3ccccc3O)o2)s1	nt	nt	103.1	i	1.12	nt	2.1
Cc1cc2cc(CCNC(=O)C(C)C)c(=O)[nH]c2cc1C	71.4	171.7	nt	i	0.6	-1.2	1.7
Cc1nc(-c2cccc(NC(=O)C3CCCCC3)c2)cs1	nt	nt	100.3	i	0.9	nt	-1.4
Cc1ccccc1S(=O)(=O)c1c(C)cc(C)n(CC(C)C)c1=O	-3.2	56.9	99.3	i	1	-3.4	9.2
Cc1ccc(-n2c(COc3c(C)cccc3C)nnc2SCC(=O)Nc2nccs2)cc1	2.8	130.5	108.3	i	0.98	64.5*	-3.0
COC(=O)c1[nH]c2cccc(Cl)c2c1NC(=O)CN(C)C1CCCCC1	12.1	97.2	105.9	i	0.8	-0.5	2.5
O=C(NCc1ccc(OC(F)(F)F)cc1)C1CC(c2ccccc2C(F)(F)F)=NO1 (stereo not given)	nt	nt	102.8	i	1.07	nt	nt
CC(C)CC(NC(N)=O)C(=O)Nc1ccc2c(c1)OCO2 (stereo not given)	-38.5	131.1	96.3	i	0.85	nt	-4.9
c1ccc(-c2nc(CSc3nnc(-c4cccs4)o3)cs2)cc1	nt	nt	93.4	i	0.96	-2.9	1.5
Cn1c(=O)c2c(nc(N3CCCC3)n2CC(O)CO)n(C)c1=O (stereo not given)	25.0	155.2	102.8	i	0.9	-0.4	10.7
O=C(Nn1nnnc1Nc1ccccc1)C12CC3CC(CC(C3)C1)C2	nt	nt	105.8	i	0.94	-0.2	-5.4
CC(C)C1C2=C(CC(C)(C)CC2=O)ON1c1ccccc1 (stereo not given)	15.8	82.8	107.3	i	1.06	-0.9	-3.9
CCCCCn1c(CN2CCCCC2C)nc2c1c(=O)n(C)c(=O)n2C (stereo not given)	21.4	171.5	98.1	i	0.96	-2.0	-4.9
O=C(c1ccc(Br)o1)N1CCN(c2ccccn2)CC1	nt	nt	102.5	i	0.85	-1.1	-7.7
CCCCNC(=O)Nc1cc(C(=O)OC)ccc1C	15.0	108.6	100.9	i	1.09	-1.8	5.6
O=C(/C=C/c1cccs1)Nc1ccncc1	-11.1	115.3	100.0	i	1.07	-1.7	1.4
CCc1cc(=O)[nH]c(-n2[nH]c(-c3ccccc3)cc2=O)n1	-15.4	85.0	103.6	i	0.9	nt	-8.4
Cc1cc(/C=C2\C(=N)N3C(SCc4ccccc4)=NSC3=NC2=O)c(C)n1Cc1ccccc1	13.3	201.5	66.6	i	0.97	-1.5	-2.3
NS(=O)(=O)c1ccc(NC(=S)NC(=O)c2cccnc2)cc1	nt	nt	96.9	i	0.98	nt	0.8
O=C(CCCCCN1C(=O)CCC1=O)NCc1ccccc1	-24.7	110.9	94.8	i	0.9	-1.6	-6.4
Oc1ccc(Cl)cc1C1=NCCNC(C(F)(F)C(F)F)=C1	9.9	85.3	114.7	i	1.04	-2.4	-2.3

# Quoted from the listing:
# Cc1ccc(-n2c(COc3c(C)cccc3C)nnc2SCC(=O)Nc2nccs2)cc1 – HSV replic up primary fold = 0.98
# CCN1CCN(C(=S)Nc2cc(S(=O)(=O)N(CC)CC)ccc2C)CC1 – PKD1 kinase inh = 1.0
# NS(=O)(=O)c1ccc(NC(=S)NC(=O)c2cccnc2)cc1 – PKD1 kinase inh = 0.8
# Cc1ccccc1S(=O)(=O)c1c(C)cc(C)n(CC(C)C)c1=O – RGS16-Gao HTS = 99.3
# CCc1cc(=O)[nH]c(-n2[nH]c(-c3ccccc3)cc2=O)n1 – INS promoter inh cell count = 85.0

# (continued)
structure	INS promoter inh	INS promoter inh cell count	RGS16-Gao HTS	HSV replic up	HSV replic up primary fold	GALR2 ag	PKD1 kinase inh
CCOC(=O)c1cnc2nc(NCc3ccc(OC)c(OC)c3)[nH]n2c1=O	20.7	141.2	102.2	i	0.92	-2.2	1.3
N#CCCn1c(SCC(=O)c2c[nH]c3ccccc23)nc2ccccc21	nt	nt	84.7	i	0.95	-2.2	-1.1
COc1ccccc1N1CCN(C(=O)c2c(C)cc(=O)oc2C)CC1	nt	nt	105.7	i	0.99	-1.2	7.9
C/C(=N/N1CCN(Cc2cccc3ccccc23)CC1)c1cccnc1	-28.6	137.2	104.3	i	0.87	nt	-5.2
O=C(C[n+]1cc2ccccc2c2ccccc21)c1ccccc1	13.0	122.0	101.9	i	0.82	-2.8	-4.3
O=C(COC(=O)c1cc(=O)[nH]c(=O)[nH]1)Nc1cccc(S(=O)(=O)N2CCOCC2)c1	nt	nt	103.6	i	1.04	nt	-2.4
CCCCNc1c([N+](=O)[O-])cc(C)cc1[N+](=O)[O-]	-54.2	118.1	109.9	i	1.18	-2.8	1.2
CCCOc1ccc(CNC(=O)Cn2c(=O)oc3ccccc32)cc1	nt	nt	114.7	i	0.75	0.4	-1.1
CSc1cccc(NC(=S)N(Cc2ccc(C)cc2)Cc2ccccn2)c1	nt	nt	101.7	i	0.94	nt	5.3
COC(=O)c1c(NC(=O)c2ccc(OC(C)C)cc2)sc2c1CC(C)(C)NC2(C)C	nt	nt	90.0	nt	nt	nt	-8.2
CCOc1ccc2nc(SCC#N)c(C#N)cc2c1	33.3	139.7	100.7	i	0.98	2.2	-3.4
Cc1cn(C(=O)c2cccc(Br)c2)c(C)n1	-5.6	104.9	99.3	i	0.92	0.0	-6.4
O=C(N/N=C/C(Cl)=C/c1ccc([N+](=O)[O-])cc1)C(=O)Nc1cccc(C(=O)O)c1	nt	nt	96.1	i	1	nt	nt
C/C(=N\Nc1ncc(Cl)cc1Cl)c1cccs1	nt	nt	101.3	i	0.86	nt	4.3
Cc1ccc(-c2nnc(CSc3nc(C(C)C)nc4sc(C)c(C)c34)o2)cc1	26.3	126.5	101.4	i	0.81	-1.6	-9.4
CC(C)C1CC(C(F)(F)F)n2nc(C(=O)O)cc2N1 (stereo not given)	nt	nt	101.1	i	1.33	nt	-4.5
COc1ccc(C(c2nnnn2C2CCCC2)N2CCC(C)CC2)c(OC)c1 (stereo not given)	13.8	50.8	nt	i	0.86	-0.3	2.6
COc1ccccc1NC(=O)C1=C(C)NC(=O)NC1c1cccc(OC)c1OC (stereo not given)	nt	nt	102.3	i	1.02	-0.2	10.7
O=C(CN(Cc1ccccc1)S(=O)(=O)c1ccccc1)N/N=C/c1ccccc1[N+](=O)[O-]	nt	nt	101.5	i	0.85	-3.3	6.4
N#C/C(=C\c1sc(N2CCOCC2)nc1-c1ccccc1)C(=O)Nc1cccc2ccccc12	-222.6	118.3	105.1	i	1.29	-0.9	1.1
CCc1ccc(NC(=O)c2ccccc2Br)cc1	nt	nt	92.3	i	0.99	nt	6.1
C=CCNC(=O)CCC(=O)NNc1nc2ccccc2c2nc(-c3ccccc3)nn12	nt	nt	103.0	i	0.85	nt	-0.7
COc1cc(-c2nnc(CSc3nc4ccccc4s3)o2)cc(OC)c1OC	nt	nt	100.4	i	0.957	0.6	0.1
O=C(c1nc2ncccn2n1)N1CCN(c2ccc(F)cc2)CC1	-31.8	117.9	124.7	i	0.95	-0.1	-5.6
CCOC(=O)c1c(-c2ccc(C)o2)csc1NC(=S)NC(=O)c1ccc(F)cc1	-63.6	112.6	67.8	i	0.87	-0.7	-0.8
NC(=O)Nc1ccc(Oc2ncc(C(F)(F)F)cc2Cl)cc1	0.0	82.1	95.2	i	0.88	nt	-3.0
CCN(CC)C(=O)c1ccc(CS(=O)(=O)c2ccc(OC)cc2)o1	nt	nt	94.0	i	0.83	0.5	1.2
Cc1ccccc1-c1nnc(-c2ccc(Br)cc2)o1	nt	nt	84.9	i	1.07	-0.6	6.2
CC(C)CC(=O)NC(=S)Nc1cc(C(F)(F)F)ccc1N1CCOCC1	nt	nt	101.7	i	0.99	1.0	1.7
O=C(NCC1CCCO1)C1CCN(C2CCN(C(=O)CC3CCCC3)CC2)CC1 (stereo not given)	nt	nt	113.8	i	0.91	nt	-6.3
Nc1nonc1-c1nc2ccccc2n1CC(=O)N/N=C\c1ccc(-c2ccc(Cl)cc2)o1	45.2	142.2	99.8	i	0.92	-1.6	-11.5
Cc1ccc(-c2nnc(SCC(=O)Nc3sc(C)c(C)c3C#N)n2C)cc1	60.0	177.0	75.7	i	0.93	-1.8	-9.9
COc1cccc(C(=O)Nc2cccc(-c3nc4ncccc4o3)c2C)c1	0.0	112.4	100.5	i	0.96	-1.5	7.0
CCn1nc(C)c(/C=N/NC(=O)Cc2ccc(Cl)cc2)c1C	-3.1	90.6	102.8	i	0.97	-0.6	3.3
CCOc1ccc(C(=O)Nc2nc(C)c(C(=O)OC)s2)cc1	nt	nt	96.1	i	0.97	nt	nt
CCN(CC)S(=O)(=O)c1ccc(NC(=O)Cn2c(=O)sc3ccccc32)cc1	-475.0	53.2	105.1	i	0.97	-0.6	-1.8
Cc1nn(CC(=O)Nc2nccs2)c(C)c1[N+](=O)[O-]	nt	nt	105.3	i	1.06	nt	9.0
Cc1cc(Cl)ccc1C(=O)C1CCCN(C(=O)CCN2CCCO2)C1 (stereo not given)	nt	nt	94.0	i	0.98	nt	2.2
COC(=O)c1ccc(C(=O)N2CCCC(CNC(=O)c3ccccc3Cl)C2)cc1 (stereo not given)	nt	nt	103.5	i	0.95	nt	0.2
CNc1sc(C(=O)c2ccccc2F)c(N)c1-c1nc2ccccc2s1	-30.8	82.8	83.7	i	1.19	-2.4	6.4
COc1c(OC)c(O)c2c(=O)cc(-c3c(O)cccc3O)oc2c1OC	nt	nt	93.5	i	0.88	nt	17.5
CC(C)OC(=O)/C(=C/c1cccnc1)NC(=O)c1ccccc1	41.2	136.3	91.5	i	0.85	-2.4	-7.3
O=C(Nc1ccccc1)Nc1scc2c1c(=O)oc1ccccc12	nt	nt	105.5	i	0.94	nt	nt

# Molecules listed so far with a furan ring, fused or not:
structure	INS promoter inh	INS promoter inh cell count	RGS16-Gao HTS	HSV replic up	HSV replic up primary fold	GALR2 ag	PKD1 kinase inh
O=C(c1ccc(Br)o1)N1CCN(c2ccccn2)CC1	nt	nt	102.5	i	0.85	-1.1	-7.7
CCOC(=O)c1c(-c2ccc(C)o2)csc1NC(=S)NC(=O)c1ccc(F)cc1	-63.6	112.6	67.8	i	0.87	-0.7	-0.8
CCN(CC)C(=O)c1ccc(CS(=O)(=O)c2ccc(OC)cc2)o1	nt	nt	94.0	i	0.83	0.5	1.2
Nc1nonc1-c1nc2ccccc2n1CC(=O)N/N=C\c1ccc(-c2ccc(Cl)cc2)o1	45.2	142.2	99.8	i	0.92	-1.6	-11.5

# Structures above that bear a hit mark in GALR2 ag:
structure	RGS16-Gao HTS	HSV replic up primary fold	GALR2 ag	PKD1 kinase inh
Cc1ccc(-n2c(COc3c(C)cccc3C)nnc2SCC(=O)Nc2nccs2)cc1	108.3	0.98	64.5*	-3.0

# Source: PubChem (several laboratories)
